Cruzain inh Det = inhibitors of Trypanosoma cruzi cruzain with detergent | purified cruzain, Z-FR-AMC fluorescence, 0.01% Triton | 0.43% of 200,000 active | P25779 | Potency, µM, for inactives: max response, negative = inhibition, hits mostly inhibitors; active = well fitted curve in the direction sought with a large enough effect; inconclusive = small, poorly fitted or top-dose-only effect, or another doubt; inactive = no such curve, though single readings can be large; an effect the other way counts as inactive or inconclusive;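 also: plate controls were neutral wells for no effect and buffer without enzyme for full effect; nearly all actives have a fitted effect of over 40% in size; top concentration of the series not given in the record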
Target sequence (P25779 123-467 limits assumed): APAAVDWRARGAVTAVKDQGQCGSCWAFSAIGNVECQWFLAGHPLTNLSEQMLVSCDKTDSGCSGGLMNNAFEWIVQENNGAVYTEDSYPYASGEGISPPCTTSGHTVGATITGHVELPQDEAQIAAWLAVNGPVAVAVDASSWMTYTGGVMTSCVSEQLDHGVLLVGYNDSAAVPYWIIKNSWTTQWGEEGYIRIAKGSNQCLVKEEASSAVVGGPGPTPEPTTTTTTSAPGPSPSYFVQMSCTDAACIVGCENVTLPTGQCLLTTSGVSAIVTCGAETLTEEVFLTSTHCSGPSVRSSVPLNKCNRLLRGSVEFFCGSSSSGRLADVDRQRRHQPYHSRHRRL
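Purified cruzain (1.5 nM final) was preincubated with compounds for 15 min at room temperature in 100 mM sodium acetate pH 5.5, 5 mM DTT, 0.01% Triton X-100. Reaction started with 2 uM Z-FR-AMC; AMC fluorescence change over 60 s gave activity.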
2A StopGo = FMDV 2A StopGo reporter, luciferase signal; human cells with a luciferase reporter of 2A StopGo recoding; control for the full effect not named in the record; 1.2% of 410,000 active; Potency, µM (doses to about 57.9 µM), for the others: at the top dose signal change, negative = less light; active = well fitted falling curve with a large enough effect; inconclusive = small, poorly fitted or top-dose-only effect; inactive = no such curve, though single readings can be large or run the other way; tested in HEK293T cells; also: % is scaled to controls: 0 for no effect and ±100 for the full control effect; nearly all actives have a fitted effect of over 45% in size; luciferase light after 4 h
MARV entry inh = inhibitors of Marburg virus binding or cell entry | Marburg virus pseudotyped entry inhibition, cell reporter; control for the full effect not named in the record; about a third of the inactives were read at about 46 µM | AID 540276 | 1.8% of 300,000 active | Potency, µM (titrated, usually from 37.8 µM), for the others: at the top dose activity change, negative = inhibition, actives largely listed as inhibitors; active = well fitted inhibition curve with a large enough effect; inconclusive = small, poorly fitted or top-dose-only effect, or effect the other way; inactive = flat fitted curve, though single readings scatter; tested in HEK293 cells; about a fifth of its hits are not listed in these tables; also: % is scaled to controls: 0 for no effect and ±100 for the full control effect; luciferase read-out
RE007 growth inh = less growth of the S. pombe RE007 Vpr strain. S. pombe RE007 Vpr strain, BacTiter-Glo ATP luminescence, 24 h; control for the full effect not named in the record. Potency, µM (top dose mostly 92.2 µM), inactives show at the top dose activity change, negative = less growth. 0.21% of 360,000 active; active = well fitted falling curve with a large enough effect; inconclusive = small, poorly fitted or top-dose-only effect; inactive = no such curve, though single readings can be large or run the other way;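 also: % is scaled to controls: 0 for no effect and ±100 for the full control effect; nearly all actives have a fitted effect of over 50% in size; the assay follows cell death caused by Vpr and the record does not say whether a fall means rescue or toxicity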
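Fission yeast strain RE007, carrying one chromosomally integrated HIV-1 vpr copy, was seeded at OD 0.01 in PMG+AL medium with 23 nL pinned compound. After 24 h at 30 °C and 99% humidity, viability was read by BacTiter-Glo luminescence.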
SARS PLP yeast = inhibitors of SARS-CoV papain-like protease in yeast. Potency, µM (series often up to 32.9 µM), for inactives: top-dose activity, positive = growth rescue. 0.19% of 330,000 active. S. cerevisiae expressing SARS-CoV PLpro, growth rescue; control for the full effect not named in the record; also: 0% is about no effect; nearly all actives have a fitted effect of over 55% in size; growth read by luminescence after 48 h
NS1 inh = blocks influenza NS1 protein function; AID 2326; S. cerevisiae slowed by influenza A NS1, growth recovery by OD600; Potency, µM (titrated, usually from 46.1 µM), for the others: at the highest dose activity, positive = more growth; 0.4% of 270,000 active; also: actives are rising curves; nearly all actives have a fitted effect of over 50% in size
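A cell-based growth assay was used: compounds that relieve NS1-induced slow growth of budding yeast raise OD600. Assay medium was yeast nitrogen base with ammonium sulphate and -URA supplement, pH 6.0, with 2% galactose.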
LASV entry inh = Lassa virus entry inhibition | Lassa virus pseudotype entry inhibition, cell reporter; control for the full effect not named in the record | Potency, µM (doses to about 37.9 µM), without a hit: at the top dose activity change, negative = inhibition, usual class: inhibitors | 1.2% of 300,000 active; active means well fitted inhibition curve with a large enough effect; inconclusive means small, poorly fitted or top-dose-only effect, or effect the other way; inactive means flat fitted curve, though single readings scatter; tested in HEK293 cells; also: % is scaled to controls: 0 for no effect and ±100 for the full control effect; nearly all actives have a fitted effect of over 50% in size; luciferase read-out
Cruzain noTriton = inhibitors of Trypanosoma cruzi cruzain without detergent; 2.3% of 200,000 active; purified cruzain, Z-FR-AMC fluorescence, no detergent; Potency, µM, for the others: max response, negative = inhibition, actives largely listed as inhibitors; P25779; active = well fitted curve in the direction sought with a large enough effect; inconclusive = small, poorly fitted or top-dose-only effect, or another doubt; inactive = no such curve, though single readings can be large; an effect the other way counts as inactive or inconclusive;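 also: plate controls were enzyme without inhibitor for no effect and buffer without enzyme for full effect; nearly all actives have a fitted effect of over 40% in size; top concentration of the series not given in the record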
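Purified cruzain at 1.5 nM, pre-incubated 15 min with compound at room temperature in 100 mM sodium acetate pH 5.5, 5 mM DTT, 0.00005% Triton X-100. Reaction started with 2 uM Z-FR-AMC; AMC fluorescence increase over 60 s gives rate.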
Starred values were filed as active, the others as inactive; u = inconclusive; x = no result given; & = joins results of further samples; [ ] = another dose, or the depositor's remark. Unless noted, calls follow the shape of the dose curve; as a rule, active means well fitted rising curve with a large enough effect; inconclusive means small, poorly fitted or top-dose-only effect; inactive means no such curve, though single readings can be large or run the other way. Potency is read from the fitted curve at half-maximal effect. This is a random part of the collection. About 4.5% of those tested had a hit in this group.

Molecule	Cruzain inh Det	2A StopGo	MARV entry inh	RE007 growth inh	SARS PLP yeast	NS1 inh	LASV entry inh	Cruzain noTriton
COc1ccccc1-c1ccc(=O)n(CC(=O)NCC2CCCO2)n1 (centres undefined)	x	19%	-2%[46.1 µM]	7%	1%	0%	1%[46.1 µM]	x
Cc1cccc(C)c1NC(=S)/C(=C(\[O-])c1cccs1)[n+]1ccccc1	-8.1%	-16%	-1%	-2%	-6%	16%	-1%	-2%
COc1ccc(N(Cc2cc(=O)[nH]c3ccccc23)C(C)=O)cc1	x	-3%	18%[46.1 µM]	3%	0%	0%	1%	x
O=C(c1ccc(Cl)cc1Cl)C1(n2cncn2)Oc2ccccc2C1O (centres undefined)	-4.9%	8%	-12%	10%	-36%	-174%	-9%	-5%
Cc1ccc(S(=O)(=O)N(CCC(=O)O)Cc2ccc(Cl)cc2)cc1	-0.9%	x	u	-14%	4%	3%	1%	7%
O=S(=O)(c1cccs1)N1CCN(c2ccccc2F)CC1	x	-8%	-22%[46.1 µM]	10%	0%	8%	-24%[46.1 µM]	x
Cc1ccc(-n2cccc2/C=C2\C(=N)N3N=C(c4ccco4)SC3=NC2=O)cc1	x	-20%	18%	7%	-1%	x	0%	x
O=S(=O)(NCCCCCNS(=O)(=O)c1ccccc1)c1ccccc1	3.1%	u	-1%&-15%	0%	2%	-5%	-27%	-9%
O=C(NCC(F)(F)F)Nc1nnc(C(F)(F)F)s1	2.3%	u	-9%	4%	3%	-12%	u	4%
O=C(CCC1N=C2c3ccccc3N=C(SCc3ccc(Cl)cc3)N2C1=O)NCCc1ccccc1 (centres undefined)	-4.0%	2%	u	x	x	x	25%[46.1 µM]	u
O=C(NCCCCNC(=O)c1c(Cl)cccc1Cl)c1c(Cl)cccc1Cl	x	-8%	19%	5%	x	x	0%	x
CCc1ccc(/C=C/c2c[nH]c3ccccc23)[n+](CC)c1	-14%	u	u	u	3%	-6%	13µM*	-26%
CC1CN1P(=O)(Oc1ccccc1)N1CC1C (centres undefined)	x	5%	2%	-3%	x	x	6%	x
CCN(C(=O)CSc1nc2nc(C)cc(C)n2n1)c1cccc(C)c1	5.9%	8%	-18%	-9%	-6%	-7%	23%[14.3 µM]	1%
CCn1c(SCC(=O)N2CCCc3ccccc32)nnc1-c1ccco1	0.2%	-7%	3%	6%	-10%	-9%	2%	13%
CC(C)(C)c1ccc(C(=O)NC2CCS(=O)(=O)C2)cc1 (centres undefined)	x	28%	14%[46.1 µM]	0%	-2%	-9%	2%	x
Cc1ccccc1CS(=O)(=O)Cc1ccc(C(=O)NCc2ccccn2)o1	4.7%	11%	2%	-7%	-2%	u	5%	6%
Cc1ccc(CN(C)C(=O)c2cc(Br)c(Br)s2)o1	x	9%	0%[46.1 µM]	u	8%	-13%	18%[46.1 µM]	x
O=C(NCc1ccc2c(c1)CCN2C(=O)c1ccncc1)c1ccc(Cl)cc1	-0.4%	-24%	x	x	x	x	u	3%
CC(=O)c1cccc(NC(=O)NNC(=O)c2ccc(Cl)cc2Cl)c1	x	-12%	-10%[46.1 µM]	7%	-1%	6%	16%	x
CCC(c1ccccc1)c1nc(-c2ccccn2)no1 (centres undefined)	6.5%	16%	u	0%	-6%	-57%	12%	-5%
COc1ccc(CCNC(=O)CN2CCN(Cc3ccccc3F)C2=O)cc1OC	x	-15%	1%	13%	1%	-1%	0%	x
CCn1c(=O)c(C(=O)NCc2ccc(OC)c(OC)c2)c(O)c2ccccc21	-4.5%	u	-21%	4%	-3%	-4%	-5%	u
CN(C)c1ccc(NC(=O)Cc2ccccc2)c2ccccc12	x	35%[activator]	u	-14%	0%	2%	3%[46.1 µM]	x
CCOC(=O)c1ccc(NS(=O)(=O)c2ccc(-c3coc(C)n3)cc2)cc1	x	0%	x	-2%	0%	-1%	x	x
Cc1nnc(SCc2ccc(F)cc2)s1	0.6%	49%[activator]	4%	0%	-2%	-54%	u	-4%
NC(=O)N/N=C/c1ccc([N+](=O)[O-])o1	-17%&0.5%	-14%&5%	x	5%[18.4 µM]	x	x	x	-18%&-6%
COc1ccccc1NC(=O)NN1CCCCC1	x	0%	7%[46.1 µM]	-25%	0%	-4%	-2%[46.1 µM]	x
CCOC(=O)c1c(NC(=O)CCCOc2ccc(C)cc2)sc2c1CCC(C)C2 (centres undefined)	0.4%	11%	x	x	x	x	3%[46.1 µM]	3%
COc1ccc(C(=O)Nc2nc(-c3nnn(-c4ccc(C(C)C)cc4)c3C)ns2)cc1	0.2%	-10%	x	x	x	x	3%[46.1 µM]	u

Grouped by structure, those above containing an NH in an aromatic ring
Molecule	Cruzain inh Det	2A StopGo	MARV entry inh	RE007 growth inh	SARS PLP yeast	NS1 inh	LASV entry inh	Cruzain noTriton
COc1ccc(N(Cc2cc(=O)[nH]c3ccccc23)C(C)=O)cc1	x	-3%	18%[46.1 µM]	3%	0%	0%	1%	x
CCc1ccc(/C=C/c2c[nH]c3ccccc23)[n+](CC)c1	-14%	u	u	u	3%	-6%	13µM*	-26%

Other compounds:
Molecule	Cruzain inh Det	2A StopGo	MARV entry inh	RE007 growth inh	SARS PLP yeast	NS1 inh	LASV entry inh	Cruzain noTriton
CCOC(=O)N1CCC(N2C(=O)c3ccc(C(=O)NCCC(C)C)cc3C2=O)CC1	x	u	x	3%	3%	5%	x	x
Cc1ccc(-c2cn3c(n2)sc2cc(C(=O)NCCCc4ccccc4)ccc23)c(C)c1	-2.4%	-7%	x	x	x	x	6%[46.1 µM]	-6%
CC(NCC(=O)Nc1ccccc1C(=O)NC1CC1)c1cccs1 (centres undefined)	x	-1%	4%[46.1 µM]	-16%	-4%	x	-5%[46.1 µM]	x
Cc1ccc(-c2cc(C(F)(F)F)n3ncc(-c4ccccc4)c3n2)cc1	-1.4%	5%	21%[46.1 µM]	x	x	x	3%[46.1 µM]	-4%
COC(=O)c1ccc(CSc2nc(-c3ccccc3)cs2)o1	-5.6%	x	u	-17%	-1%	-16%	7%	0%
CC(C)c1ccc(NC2CCCN(C(=O)c3ccsc3)C2)cc1 (centres undefined)	x	u	x	3%	-3%	-1%	x	x
O=S1(=O)CCC(N2CCOCC2)C1 (centres undefined)	2.1%	-8%	-5%	4%	0%	5%	0%	1%
O=c1c2ccccc2nnn1CSc1nnc2sc3ccccc3n12	4.9%	x	3%	x	-3%	0%	x	u
COc1ccc(OC)c(S(=O)(=O)N(C)CC(=O)N2CCN(c3ccc(F)cc3)CC2)c1	0.9%	x	-10%	14%	-2%	-4%	-16%	u
COCCN(Cc1ccccc1)C(=O)Cc1ccc(OC)c(S(=O)(=O)N2CCOCC2)c1	x	20%	-6%	3%	-4%	x	26%[46.1 µM]	x
O=C1C=C(NCc2ccccc2)CCC1	1.3%	-19%	u	-5%	-3%	-1%	4%	-4%
CCC(C(=O)Nc1ncccn1)(C(F)(F)F)C(F)(F)F	2.0%	11%	10%	17%	0%	5%	1%	-3%
CC(=O)N(C)C1(c2nnnn2CCOC(=O)Nc2ccc(Cl)cc2)CCCCC1	-1.4%	-11%	-2%&-2%	9%	3%	-14%	-3%	17%
CC(C)OCCCNC(=O)c1cc(S(=O)(=O)N2CCc3ccccc32)cn1C	x	-23%	x	11%	-1%	-13%	x	x
O=C(COC(=O)/C=C/c1ccc(F)cc1)Nc1ccccc1-c1ccccc1	-7.9%	-23%	1%[46.1 µM]	1%	6%	9%	1%	-9%
O=c1[nH]c2cc3c(cc2cc1CN(Cc1ccccc1)Cc1nnnn1Cc1ccco1)OCCO3	-14%	-2%	-38%&-3%	-21%	10%	-15%	u	8%
CC1CC(C)CN(C(=O)CSCC(=O)O)C1 (centres undefined)	x	-14%	x	5%	1%	12%	x	x
COc1ccc(Cl)cc1C(=O)NCc1ccc2c(c1)OCO2	x	27%	u	8%	-14%	-17%	-2%[46.1 µM]	x
CCC(=O)NC(c1ccc(OC)cc1)c1cc(Cl)c2cccnc2c1O (centres undefined)	x	-19%	2.2µM*	8%	-1%	-1%	2.8µM*	x
Cc1cc(/C=C2/NC(=O)N(Cc3ccccc3F)C2=O)c(C)n1-c1ccccn1	-5.7%	10%	-21%[46.1 µM]	-10%	-8%	29%	u	u
COCCCNC(=O)c1ccccc1Sc1ccc(NC(C)=O)nc1	x	-3%	17%[46.1 µM]	3%	0%	x	22%[46.1 µM]	x
Clc1ccc(-c2nc(N3CCCCC3)nc3ccccc23)cc1	-1.9%	-18%	u	6%	-16%	-5%	1%	-4%
CCOC(=O)c1ccc(S(=O)(=O)N(CCO)Cc2cc3cc(OC)c(OC)cc3[nH]c2=O)cc1	x	-21%	3%[46.1 µM]	-16%	2%	3%	1%	x
CC(NC(=O)CCNS(=O)(=O)c1ccc2c(c1)oc(=O)n2C)c1ccccc1 (centres undefined)	x	11%	x	2%	4%	7%	x	x
Cn1c(Sc2ccc(Br)cc2)c(C=O)c2ccccc21	-0.8%	u	u	-21%	-7%	-88%	10µM*	-11%
CCCn1c(SCC(=O)N2CCCCC2)nnc1-c1ccco1	5.0%	16%	-1%	0%	0%	1%	25%	5%
Cc1cc(C(C)(C)C)cc(S(=O)(=O)NCCc2ccncc2)c1C	x	78%[activator]	x	-11%	-1%	2%	x	x
COC(=O)[C@H]1O[C@@H](c2cc(OC)c(C)c(OC)c2OCc2ccccc2)[C@H](C)[C@H]2O[C@@]12C	7.5%&0.1%	x	-23%&8%[14.2 µM]	x	x	x	u	2%&11%
CC(=O)Nc1ccc(NC(=O)C(C)OC(=O)CNC(=O)c2ccc(-c3ccccc3)cc2)cc1 (centres undefined)	x	8%	3%	30%	12%	x	1%	x
